Compound activity: PubChem BioAssay, National Center for Advancing Translational Sciences (NCATS)
SARS PLP yeast – blocks SARS-CoV papain-like protease in a yeast assay | S. cerevisiae expressing SARS-CoV PLpro, growth rescue; control for the full effect not named in the record | Potency, µM (highest dose often 32.9 µM), for inactives: at the top dose activity, positive = growth rescue | actives 0.19% (n = 330,000) | AID 485353; active means well fitted rising curve with a large enough effect; inconclusive means small, poorly fitted or top-dose-only effect; inactive means no such curve, though single readings can be large or run the other way; also: 0% is about no effect; nearly all actives have a fitted effect of over 55% in size; growth read by luminescence after 48 h
NS1 function inh – inhibitors of influenza NS1 protein function; Potency, µM (highest dose often 46.1 µM), for inactives: top-dose activity, positive = more growth; AID 2326; actives 0.4% (n = 270,000); S. cerevisiae slowed by influenza A NS1, growth recovery by OD600; active means well fitted rising curve with a large enough effect; inconclusive means small, poorly fitted or top-dose-only effect; inactive means no such curve, though single readings can be large or run the other way; also: nearly all actives have a fitted effect of over 50% in size
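Growth recovery, yeast-based: influenza A NS1 expressed in S. cerevisiae causes slow growth, and suppressors are detected by OD600. The parent strain without NS1 is used as positive control.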
Marburg entry inh – blocks Marburg virus binding to or entry into cells; Marburg virus pseudotyped entry inhibition, cell reporter; control for the full effect not named in the record; about a third of the inactives were read at about 46 µM; Potency, µM (top dose mostly 37.8 µM), inactives show at the highest dose activity change, negative = inhibition, hits mostly inhibitors; actives 1.8% (n = 300,000); active = well fitted inhibition curve with a large enough effect; inconclusive = small, poorly fitted or top-dose-only effect, or effect the other way; inactive = flat fitted curve, though single readings scatter; tested in HEK293 cells; about a fifth of its hits are not listed in these tables; also: % is scaled to controls: 0 for no effect and ±100 for the full control effect; luciferase read-out
Lassa entry inh – inhibitors of Lassa virus binding or cell entry | Lassa virus pseudotype entry inhibition, cell reporter; control for the full effect not named in the record | Potency, µM (top dose mostly 37.9 µM), inactives show at the top dose activity change, negative = inhibition, usual class: inhibitors | actives 1.2% (n = 300,000); active means well fitted inhibition curve with a large enough effect; inconclusive means small, poorly fitted or top-dose-only effect, or effect the other way; inactive means flat fitted curve, though single readings scatter; tested in HEK293 cells; also: % is scaled to controls: 0 for no effect and ±100 for the full control effect; nearly all actives have a fitted effect of over 50% in size; luciferase read-out
Cruzain Triton – inhibitors of Trypanosoma cruzi cruzain with detergent; purified cruzain, Z-FR-AMC fluorescence, 0.01% Triton; actives 0.43% (n = 200,000); P25779; AID 1478; Potency, µM, without a hit: max response, negative = inhibition, usual class: inhibitors;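 also: plate controls were neutral wells for no effect and buffer without enzyme for full effect; nearly all actives have a fitted effect of over 40% in size; top concentration of the series not given in the record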
Target sequence (P25779 123-467 limits assumed): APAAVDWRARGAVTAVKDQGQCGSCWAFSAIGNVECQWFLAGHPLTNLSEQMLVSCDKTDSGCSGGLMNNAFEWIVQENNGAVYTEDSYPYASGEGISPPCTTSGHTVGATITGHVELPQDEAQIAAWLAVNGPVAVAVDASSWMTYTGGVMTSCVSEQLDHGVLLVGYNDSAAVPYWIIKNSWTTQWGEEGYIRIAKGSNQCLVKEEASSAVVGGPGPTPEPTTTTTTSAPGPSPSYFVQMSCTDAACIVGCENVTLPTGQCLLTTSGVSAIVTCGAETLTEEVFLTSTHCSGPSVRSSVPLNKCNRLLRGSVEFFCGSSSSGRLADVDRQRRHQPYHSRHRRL
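Enzyme 1.5 nM, Z-FR-AMC 2 uM, NaOAc 100 mM pH 5.5, DTT 5 mM, Triton X-100 0.01%; 15 min RT compound preincubation; kinetic ex360/em450, 60 s delta.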
StopGo reporter – FMDV 2A StopGo reporter, luciferase signal | human cells with a luciferase reporter of 2A StopGo recoding; control for the full effect not named in the record | Potency, µM (titrated, usually from 57.9 µM), inactives show at the highest dose signal change, negative = less light | actives 1.2% (n = 410,000); active = well fitted falling curve with a large enough effect; inconclusive = small, poorly fitted or top-dose-only effect; inactive = no such curve, though single readings can be large or run the other way; tested in HEK293T cells; also: % is scaled to controls: 0 for no effect and ±100 for the full control effect; nearly all actives have a fitted effect of over 45% in size; luciferase light after 4 h
Cruzain inh noDet – cruzain (T. cruzi) inhibition without detergent | P25779 | purified cruzain, Z-FR-AMC fluorescence, no detergent | Potency, µM, inactives show max response, negative = inhibition, most hits filed as inhibitors | actives 2.3% (n = 200,000) | AID 1476;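 also: plate controls were enzyme without inhibitor for no effect and buffer without enzyme for full effect; nearly all actives have a fitted effect of over 40% in size; top concentration of the series not given in the record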
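Purified cruzain at 1.5 nM, pre-incubated 15 min with compound at room temperature in 100 mM sodium acetate pH 5.5, 5 mM DTT, 0.00005% Triton X-100. Reaction started with 2 uM Z-FR-AMC; AMC fluorescence increase over 60 s gives rate.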
RE007 growth inh – less growth of the S. pombe RE007 Vpr strain; S. pombe RE007 Vpr strain, BacTiter-Glo ATP luminescence, 24 h; control for the full effect not named in the record; Potency, µM (titrated, usually from 92.2 µM), for inactives: top-dose activity change, negative = less growth; actives 0.21% (n = 360,000); AID 651644; active = well fitted falling curve with a large enough effect; inconclusive = small, poorly fitted or top-dose-only effect; inactive = no such curve, though single readings can be large or run the other way;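 also: % is scaled to controls: 0 for no effect and ±100 for the full control effect; nearly all actives have a fitted effect of over 50% in size; the assay follows cell death caused by Vpr and the record does not say whether a fall means rescue or toxicity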
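Fission yeast RE007 carrying one integrated HIV-1 vpr copy, seeded at OD 0.01 in PMG+AL medium with 23 nL pinned compound. Grown 24 h at 30 degrees; viability read by BacTiter-Glo luminescence after 5 min.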
An asterisk follows results filed as active; ? = inconclusive; / = no result given; & = joins results of further samples; [ ] = another dose, or the depositor's remark. Unless noted, calls follow the shape of the dose curve; as a rule, active = well fitted curve in the direction sought with a large enough effect; inconclusive = small, poorly fitted or top-dose-only effect, or another doubt; inactive = no such curve, though single readings can be large; an effect the other way counts as inactive or inconclusive. Potency is read from the fitted curve at half-maximal effect.

Values run as follows: RE007 growth inh	NS1 function inh	Cruzain inh noDet	StopGo reporter	Marburg entry inh	Cruzain Triton	Lassa entry inh	SARS PLP yeast
O=C(OC1CCN(c2ccc([N+](=O)[O-])cc2)CC1)c1ccccc1
→ 0%[3.69 µM]	?	-4%	-9%	?	-1.6%	-1%	1%
C=CCN1C(=O)CN=C1Nc1ccccc1
→ -3%	3%	1%	1%	6%	3.9%	-4%	5%
Cn1c(=O)c2c(-c3ccccc3)n(N3CCOCC3)cc2n(C)c1=O
→ 0%	-1%	-10%	-10%	-1%	-0.6%	27%	-9%
COC(=O)c1[nH]c2ccccc2c1NC(=O)/C=C/c1ccc2c(c1)OCO2
→ -3%	-3%	-3%	19%	-11%	-11%	-3%	-4%
O=C(NNC(=O)c1cccs1)c1ccc(Cl)c(Cl)c1
→ -13%	-1%	?	41%[activator]	21%[46.1 µM]	-1.5%	12%	-5%
CCn1cc(C(=O)NCc2ccncc2)c(=O)c2cc(F)c(N3CCN(C(=O)c4ccco4)CC3)cc21
→ 3%	-12%	/	?	7%[46.1 µM]	/	2%	0%
Cc1ccc(NC(=O)CN2CCN(C)CC2)cc1Br
→ 2%	3%	/	-10%	/	/	/	2%
O=C(/C=C/c1ccc(Cl)cc1)N(Cc1ccccc1)c1ccccn1
→ 2%	-8%	/	17%	-23%[46.1 µM]	/	?	-1%
CCC1(C)Cc2c(sc3nc(NC)n(C)c(=O)c23)CO1 (configuration not stated)
→ 1%	-12%	2%	-5%	26%	-6.3%	18%	-7%
Cc1ccc(C)c(N(CC(=O)Nc2cc(Cl)ccc2Oc2ccccc2)S(C)(=O)=O)c1
→ -3%	?	-7%	-24%	13µM*	1.4%	?	1%
COc1cccc(-c2n[nH]c(=S)n2Cc2ccco2)c1OC
→ 1%	-3%	-7%	-4%	16%	0.9%	1%	-9%
COc1ccc(CCNC(=O)C2CCCN(S(=O)(=O)c3ccc(F)cc3)C2)cc1 (configuration not stated)
→ -16%	18%	/	?	-4%	/	-12%	-1%
O=C(Cn1c(C(=O)NCc2ccco2)cc2sccc21)c1ccccc1
→ -6%	-35%	6%	-19%	4%	-1.1%	/	1%
CNc1nc(N)c([N+](=O)[O-])c(Nc2ccccc2OC)n1
→ -5%	-6%	/	5%	-29%	/	-6%	1%
Cc1ccc(S(=O)(=O)N2CCOCC2)cc1C(=O)Nc1ccccn1
→ 4%	-1%	7%	-16%	25%	3.8%	-27%	1%
Cc1cc(NC(=O)CSc2nc3sc(C)c(C)c3c(=O)n2C2CCCC2)no1
→ -4%	9%	-5%	/	?	-0.7%	?	7%
CCC1=Nc2cc(C(=O)NC3CCCC3)ccc2Sc2ccc(Cl)cc21
→ /	/	7.9µM*	-23%	?	-3.5%	?	/
O=C(Cc1cccs1)Nc1ccc(F)cc1
→ 3%	0%	/	22%	/	/	/	-1%
O=C(CCn1nnc2ccccc21)N1CCC(O)(c2cccc(F)c2)CC1
→ -5%	-2%	1%	24%	28%[46.1 µM]	1.5%	10%	1%
O=C(OCCN1CCCCC1)c1ccccc1Br
→ -1%	2%	/	32%[activator]	/	/	/	-2%
CCOC(=O)C(C(=O)N(C)C)c1ncc(C(F)(F)F)cc1Cl (configuration not stated)
→ 2%	8%	6%	20%	9%	4.3%	27%	-6%
Cc1ccc(NC(=O)N2CC3CCCN3c3ccccc32)c(C)c1 (configuration not stated)
→ /	/	-24%	-19%	/	-8.7%	-9%[46.1 µM]	/
Cc1ccc(N2CCN(C(=O)c3cn(C)c4ccc(S(=O)(=O)N(C)C)cc4c3=O)CC2C)cc1 (configuration not stated)
→ /	/	?	25%	1%[46.1 µM]	-4.9%	24%[46.1 µM]	/
C/C(=N\NC(=O)C1COc2ccccc2O1)c1ccc(C)o1 (configuration not stated)
→ 11%	-2%	-8%	11%	14%	-1.1%	23%	2%
COC(=O)c1ccccc1NC(=O)c1cc(=O)c2ccc(C)c(C)c2o1
→ /	/	-3%	-21%	15%[46.1 µM]	-1.7%	8%[46.1 µM]	/
Cn1nnc(NC(=O)c2ccc(Br)o2)n1
→ -8%	2%	/	-1%	/	/	/	?
CN(CC(=O)Nc1ccc(Cl)cc1)C(=O)c1cccc(S(=O)(=O)NCc2ccccc2)c1
→ -3%	20%	/	13%	-10%	/	-5%	1%
CCOc1ccccc1NC(=S)NCc1ccco1
→ -16%	-15%	-3%	27%	7%	-5.9%	-1%	19%
CC(=O)NCCNC(=O)C1CCC(CNc2nc(=S)[nH]c3ccccc23)CC1 (configuration not stated)
→ -21%	1%	/	-6%	/	/	/	3%
NC(=O)C1=C[C@H](c2csc3ccccc23)C[C@H](OCCCCO)O1
→ -23%	-6%	/	-18%	/	/	/	-1%
CCOc1ccc(C2C(C#N)=C(N)N(c3sc4c(c3C#N)CCCC4)C3=C2C(=O)CCC3)cc1 (configuration not stated)
→ 6%	19%	-6%	-15%	?	-3.4%	?	4%
Cc1cccc(NC(=O)CSc2nnc(-c3cnccn3)n2Cc2ccco2)c1
→ 0%	-6%	5%	-19%	27%	-1.2%	2%	0%
N#Cc1ccc(/C=C(\C(=O)C(=O)O)c2ccc3ccccc3n2)cc1
→ -9%	-1%	/	41%[activator]	/	/	/	-1%
CSc1nc(N)c(C#N)c(-c2ccc(Cl)cc2)c1C#N
→ -14%	-13%	-14%	?	?	-4.3%	-27%	1%
CC12CCCCC1NS(=O)(=O)OC2 (configuration not stated)
→ 5%	5%	/	-22%	/	/	/	13%
CCCCOC(=O)CSc1n[nH]c(=O)[nH]c1=O
→ 32%	-10%	-3%	0%	3%	10%	5%	11%
O=C(O)Cc1ccc(NC(=O)Nc2ccc3c(c2)OCO3)cc1
→ -5%	4%	/	37%[activator]	/	/	/	9%
O=C(Nc1nc2cc3c(cc2s1)OCCO3)c1ccc(N2C(=O)CCC2=O)cc1
→ -17%	-2%	/	13%	/	/	/	0%
CCOc1ccccc1CNC(=O)C1CCN(c2nc3ccccc3nc2C(F)(F)F)CC1
→ /	/	-8%	0%	/	2.4%	11%[46.1 µM]	/
CNC(=O)/C(C#N)=C/c1ccc(-c2ccc(Cl)cc2)o1
→ ?	2%	/	53%[activator]	?	/	0%	-2%
Cc1ccccc1S(=O)(=O)Cc1ccc(C(=O)NC2CCCCC2)o1
→ -14%	1%	-7%	30%&-10%	3%&-10%[46.1 µM]	3.3%	?	1%
Clc1ccc(-c2cnc3ccccc3n2)cc1
→ -16%	-10%	-7%	34%[activator]	?	-4.4%	?	18%
Nc1nc(NC(=O)/C=C\C(=O)O)nn1-c1ccccc1
→ 6%	/	/	-2%	-13%[46.1 µM]	/	14%	1%
O=C(/C=C1\NCC2c3ccccc3CCN2C1=O)c1ccccc1 (configuration not stated)
→ -1%	10%	-9%	-9%	?	-6.1%	?	3%
CCCNc1c(NS(=O)(=O)c2ccc(C(C)(C)C)cc2)c(=O)oc2ccccc12
→ -16%	8%	/	-20%	/	/	/	-21%
Cn1c(=O)n(C)c2cc(CNc3ccc(N4CCOCC4)c(C(=O)O)c3)ccc21
→ 3%	-7%	-4%	9%	-5%&-5%	1.0%	-6%	-2%
Cc1cc(C)n2nc(SCC(=O)Nc3ccc(F)cc3)nc2n1
→ -2%	-1%	-9%	-6%	/	0.5%	/	4%
COCCCNC(=O)CS(=O)Cc1nc(-c2ccccc2C)oc1C (configuration not stated)
→ -4%	?	-8%	-20%	/	0.1%	/	3%
Cc1ccnc(NC(=O)C2COc3ccccc3O2)c1 (configuration not stated)
→ -9%	18%	2%	63%[activator]	-3%	-1.1%	?	?
Cc1nc2ccccc2c2c1C(=O)N(C1CCCCCCC1)C2=O
→ -1%	2%	0%	3%	19%	-1.3%	-7%	1%
CCCN(CCC)CCCNC(=O)C(NS(=O)(=O)c1ccc2c(c1)CCC(=O)N2)c1ccccc1 (configuration not stated)
→ 8%	/	/	-14%	?	/	1%[46.1 µM]	5%
CCOC(=O)c1c(-c2ccc(C)cc2)csc1NC(=O)c1cc2ccccc2oc1=O
→ 7%	-142%	-7%	35%[activator]	1%	-0.4%	-12%	/
Nn1c(SCC(=O)Nc2ccc3c(c2)OCO3)nnc1C1CCCCC1
→ -24%	-6%	11%	-22%	11%	3.2%	9%	/
CCOC(=O)c1c(NC(=O)c2cc(C)on2)sc(C)c1C
→ /	/	-2%	-19%	-14%[46.1 µM]	-1.9%	-3%[46.1 µM]	/
CC(C)c1nnc(NC(=O)CS(=O)(=O)Cc2ccccc2)s1
→ -1%	3%	/	6%	7%[46.1 µM]	/	12%[46.1 µM]	1%
CCOc1ccc(CN2C(=O)c3ccccc3Sc3ccc(C(=O)OC)cc32)cc1
→ /	/	-12%	-2%	/	0.9%	?	/
COc1ccccc1C(=O)Nc1nnc(C)s1
→ 11%	-49%	-2%	66%[activator]	?	0.1%	-3%	6%
CN(C)CCCn1c(SCCN2C(=O)c3ccccc3C2=O)nc2ccccc2c1=O
→ -9%	8%	/	-15%	2%[46.1 µM]	/	?	-1%
CCOC(=O)C1CCN(S(=O)(=O)c2cnc[nH]2)CC1
→ -2%	7%	-4%	-16%	0%[46.1 µM]	2.2%	1%	4%
Cc1cccc(NC(=O)CS(=O)CC(=O)Nc2cnc3ccccc3c2)c1C (configuration not stated)
→ 6%	-12%	/	3%	?	/	-8%[46.1 µM]	-6%

(further entries)
Values run as follows: RE007 growth inh	NS1 function inh	Cruzain inh noDet	StopGo reporter	Marburg entry inh	Cruzain Triton	Lassa entry inh	SARS PLP yeast
Nc1c(NCCCN2CCOCC2)c2ccccc2oc1=O
→ 5%	-10%	-17%	11%	?	-0.6%	-1%	0%
CC(C)COc1ccc(C(=O)OCCN2CCOCC2)cc1
→ ?	-3%	7%	14%	?	-0.1%	-2%	4%
Cn1c(CNc2ccccc2O)nc2ccccc21
→ ?	-86%	1%	59%[activator]	/	2.1%	/	-23%
Cc1nn(-c2ccccc2)c(C)c1NC(=O)COC(=O)c1cc(Br)ccc1O
→ 13%	/	/	-25%	0%	/	-2%[46.1 µM]	4%
